# From PubChem
# TRPV1 PAM: enhances activation of the human vanilloid receptor TRPV1. TRPV1-expressing cells, Fluo-8 calcium influx, capsaicin EC20 potentiation; host cell line not named in the record; control for the full effect not named in the record. potentiation, % at 8.33 µM. actives 0.02% (n = 320,000). AID 540277; active means potentiation above 80%; inconclusive means 30% to 80%; inactive means below 30%; note: 0% is about no effect
#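 Cells expressing TRPV1 were dye-loaded with Fluo-8 and read kinetically: 10 s baseline, 3 min after compound (agonist portion), then 2 min after EC20 capsaicin (allosteric enhancer portion). Calcium-bound dye fluorescence at 480/520 nm.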
# Menin-MLL FL inh: inhibitors of human menin-MLL interaction, wild-type MLL peptide. Fluorescence polarization, fluorescein-MLL peptide displacement from menin. FP activity change, % at 61.4 µM. 290,000 tested, under 10 active; inconclusive = falling polarisation curve, or a change in total fluorescence; inactive = total fluorescence flat and polarisation flat or rising; no compound was filed as active; the % refers to the polarisation; negative = inhibition;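 note: % of control where 0% means no effect; inhibitors lower the polarisation; unlabelled MLL peptide was the positive control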
# ClpP mod: qHTS Assay for Activators of ClpP; ATP-dependent Clp protease proteolytic subunit (Bacillus subtilis (strain 168)), P80244; purified B. subtilis ClpP, FRET peptide cleavage, 20 min; Potency, µM (titrated, usually from 57.5 µM), without a hit: at the highest dose activity change, negative = active; actives 1.9% (n = 340,000); active = well fitted falling curve with a large enough effect; inconclusive = small, poorly fitted or top-dose-only effect; inactive = no such curve, though single readings can be large or run the other way; note: potency is the fitted concentration of half-maximal effect; the source files actives as falling curves though it sought activators and does not explain the sign; nearly all actives have a fitted effect of over 65% in size; many hits overshoot -100%
# Target sequence (P80244 whole entry, looked up): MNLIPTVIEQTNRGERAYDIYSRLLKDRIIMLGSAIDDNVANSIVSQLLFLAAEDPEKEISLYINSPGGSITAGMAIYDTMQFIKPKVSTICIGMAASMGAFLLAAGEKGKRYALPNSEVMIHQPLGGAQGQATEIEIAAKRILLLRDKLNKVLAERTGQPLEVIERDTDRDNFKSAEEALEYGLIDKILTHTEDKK
#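 Buffer: 100 mM Tris/HCl pH8, 100 mM KCl, 0.05% low protease BSA, 2.5% glycerol, 0.01% Tween-20. ClpP 10 microg/mL final; 20 min RT; delta FRET normalized to ADEP and DMSO controls.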
# gsp ag: activates gsp, the McCune-Albright syndrome mutation; actives 0.13% (n = 340,000); Potency, µM (doses to about 76.9 µM), for inactives: at the top dose activation (cAMP increase), hits mostly activators; gsp mutant cells, cAMP HTRF, 30 min; control for the full effect not named in the record; AID 624287; active = well fitted activation curve with a large enough effect; inconclusive = small, poorly fitted or top-dose-only effect, or another doubt; inactive = no such curve, though single readings can be large or run the other way; cell line not stated here;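 note: phosphodiesterase inhibitor Ro 20-1724 added with compounds to block cAMP breakdown; potency is the fitted concentration of half-maximal effect; nearly all actives have a fitted effect of over 60% in size; about a fifth of the inactives were tested at one dose only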
#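 Cells in DMEM/10% FBS with G418 were pretreated with compounds in DMSO plus […] (300 uM stock) for 30 min at 37C. cAMP was measured by HTRF (cAMP-d2 plus anti-cAMP antibody-K) after 30 min at room temperature.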
# D2 PAM: potentiates the human D2 dopamine receptor allosterically; P14416; actives 0.23% (n = 360,000); potentiation, % (test concentration not listed); AID 624464; DiscoveRx D2 beta-arrestin cells, luminescence, 90 min; 100% = 57 uM dopamine signal; active = potentiation of 50% or more; inconclusive = 30% to 50%; inactive = 30% or less;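 note: compound concentration not given in the record; tested on top of an EC20 dose of dopamine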
# Target sequence (P14416 whole entry, looked up): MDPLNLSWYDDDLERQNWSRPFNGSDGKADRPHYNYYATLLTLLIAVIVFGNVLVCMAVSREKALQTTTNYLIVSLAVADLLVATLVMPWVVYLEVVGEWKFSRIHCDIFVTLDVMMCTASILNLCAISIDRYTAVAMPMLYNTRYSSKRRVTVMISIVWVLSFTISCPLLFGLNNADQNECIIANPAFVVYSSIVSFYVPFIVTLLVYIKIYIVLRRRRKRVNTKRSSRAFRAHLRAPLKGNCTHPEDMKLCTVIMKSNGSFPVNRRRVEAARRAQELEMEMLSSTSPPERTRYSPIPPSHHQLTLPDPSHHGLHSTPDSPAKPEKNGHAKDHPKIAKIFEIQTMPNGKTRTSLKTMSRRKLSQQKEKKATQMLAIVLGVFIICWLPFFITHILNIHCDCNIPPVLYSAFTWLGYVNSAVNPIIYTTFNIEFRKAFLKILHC
#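 D2 cells co-treated with compound plus 50 nM dopamine (EC20) for 90 min at 37 deg C to detect potentiation. Beta-arrestin recruitment was read as enzyme-fragment luminescence after 1 h at ambient temperature. Full response was set by 57 uM dopamine.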
# gsp antagonist: gsp mutant antagonism; gsp-mutant cells, cAMP HTRF, 30 min; control for the full effect not named in the record; Potency, µM (series often up to 76.9 µM), for inactives: at the highest dose activity change, negative = inhibition, usual class: inhibitors; actives 0.4% (n = 340,000); AID 624288; active = falling curve of any shape with a large fitted effect; inconclusive = falling curve, mostly with a smaller effect; inactive = flat or rising curve; cell line not stated here;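 note: intracellular cAMP measured with PDE inhibitor Ro 20-1724 present during compound exposure; potency is the fitted concentration of half-maximal effect; % is set by controls: 0 for no effect and ±100 for the full control effect; nearly all actives have a fitted effect of over 65% in size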
#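 Measurement of cellular cAMP by homogeneous time-resolved fluorescence following a 30 min compound exposure at 37C. The PDE inhibitor […] was present throughout; the assay buffer was DPBS with 0.05% BSA and 0.005% Tween 20.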
# Sfp PPTase inh: Sfp phosphopantetheinyl transferase inhibition | AID 1490 | Potency, µM, for the others: max response, negative = inhibition, usual class: inhibitors | Biochemical Sfp PPTase activity, qHTS | Q9F4F7 | actives 3.5% (n = 310,000); active = well fitted inhibition curve with a large enough effect; inconclusive = small, poorly fitted or top-dose-only effect, or another doubt; inactive = no such curve, though single readings can be large or run the other way;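 note: the enzyme is Sfp with the accession as filed and its product quenches rhodamine fluorescence; potency is the fitted concentration of half-maximal effect; 0% = enzyme reaction without inhibitor and -100% = no enzyme wells; top concentration of the series not given in the record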
#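 Fluorescence-quenching assay with 15 nM Sfp, 5 uM rhodamine-CoA and 12.5 uM BHQ-2-labelled ybbR peptide in pH 7.6 Hepes/MgCl2 buffer. Enzyme was pre-incubated with compound for 15 min at room temperature. Rate was taken from the 30-min fluorescence change (525/598 nm).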
# An asterisk follows results filed as active; u = inconclusive; x = no result given; & = joins results of further samples; [ ] = dose if it differs, or a comment. Random draw from the library; any-hit rate near 5.1%.
SMILES,TRPV1 PAM,Menin-MLL FL inh,ClpP mod,gsp ag,D2 PAM,gsp antagonist,Sfp PPTase inh
Cc1ccccc1C(=O)N(Cc1cccs1)C1CCS(=O)(=O)C1 (stereo unspecified),14,2.8,0.9%,27%[15.4 µM],-2,-18%,16%
CN(C)S(=O)(=O)c1ccc2c(c1)nc1n2CCC1,19,4.2,-1.2%,-12%,-14,-7%,11%
COCCCNc1ncnc2ccc(C)cc12,7,0.2,-9.6%,u,21,-18%,2%
Nc1nc(Cl)cc(Nc2ccccc2Cl)n1,23,2.2,-2.9%,1%,-15,7%,16%
Cc1ccc(S(=O)(=O)N2CCN(C(=O)N3CCOCC3)C2C)cc1 (stereo unspecified),-2,2.7,-0.3%,-6%,-2,-4%,-1%
CCCCN(CC)C(=O)c1ccc(Cl)cc1,-3,-3.8,-0.5%,11%,-8,1%,12%
Cc1csc(=O)n1CCC(=O)NCc1ccc(F)cc1,x,x,-0.6%,-9%,-6,17%,x
CCC(=O)N1CCc2cc(S(=O)(=O)NC(C(=O)N3CCN(c4ccc(F)cc4)CC3)C(C)C)ccc21 (stereo unspecified),2,1.1,1.3%,22%,16,0%,10%
COn1c(SCc2ccc(Cl)cc2)nc2ccccc2c1=O,3,0.1,0.1%,-6%,1,6%,0%
O=C(Nc1nc(-c2cccnc2)cs1)c1ccc([N+](=O)[O-])cc1,15,-1.0,x,-1%[15.4 µM],10,-2%,-7%
c1cnn(-c2cncc(-n3cccn3)n2)c1,4,0.4,4.0%,-45%[inhibitor],3,-9%,9%
CC1CN(Cc2nnc(-c3ccccc3)o2)CC(C)O1 (stereo unspecified),7,6.1,x,-17%[15.4 µM],-3,20%,-24%
C[C@@H]1CCCCO[C@H](CN(C)Cc2ccc(C(F)(F)F)cc2)[C@@H](C)CN([C@H](C)CO)C(=O)c2cc(NS(=O)(=O)c3cn(C)cn3)ccc2O1,x,x,-1.1%,-32%[inhibitor],1,x,x
CC(C)(C)NCCCCOc1ccc(F)cc1,x,2.7,0.1%,-4%,-13,3%,12%
CN1CCN(CC(O)COCCOc2ccc(Br)cc2)CC1 (stereo unspecified),-8,0.4,3.7%,-20%,-21,-2%,-19%
COCCn1c(N)c(C#N)c2nc3ccccc3nc21,0,-1.7,-2.5%,3%,-4,9%,13%
COc1ccc(OC)c(NC(=O)Cn2cc(C#N)c3ccccc32)c1,-6,2.0,-7.3%,-28%,-35,-1%,-11%
Cc1noc(C)c1S(=O)(=O)Nc1ccc(C(=O)NC2CCCCC2C)cc1 (stereo unspecified),12,-0.2,-2.0%,0%,16,-9%,6%
Cc1cc(C)n(/N=C/c2c[nH]c3ccccc23)c(=O)c1,-3,1.9,-4.3%,u,-22,5%,6%
CCOC(=O)C1CCCN(C(=O)c2cccc(S(=O)(=O)N3CC(C)OC(C)C3)c2)C1 (stereo unspecified),-1,2.6,u,-17%,0,8%,9%
NC(=NCc1ccc2c(c1)OCO2)NC(=O)c1ccccc1,3,-1.5,x,-3%[15.4 µM],-17,-3%,u
COc1cc(C2C(C(C)=O)=C(O)C(=O)N2CCc2c[nH]c3ccccc23)ccc1O (stereo unspecified),15,0.7,-1.6%,-25%,-13,0%,-5%
CCCS(=O)(=O)N1CCCC(C(=O)NCc2ccc(C)cc2)C1 (stereo unspecified),-5,2.4,-0.6%,-51%[inhibitor],20,-1%,10%
Cn1c(=O)[nH]c(=O)c2c1nc(Br)n2C/C=N/NC(=O)c1ccccc1,0,1.0,x,10%[15.4 µM],-5,18%,4%
COc1cccc(NC(=O)CSc2nnnn2C(C)C)c1,8,0.4,0.8%,-21%,1,-6%,7%
SMILES,TRPV1 PAM,Menin-MLL FL inh,ClpP mod,gsp ag,D2 PAM,gsp antagonist,Sfp PPTase inh
COc1ccc(NC(=O)C2CCN(S(=O)(=O)c3ccc(N4CCCC4=O)cc3)CC2)cc1OC,-2,x,2.7%,u,-19,3%,5%
COc1ccccc1C1C2C(=O)N(c3ccccc3)C(=O)C2ON1c1ccccc1 (stereo unspecified),-9,-0.4,-0.9%,-6%,19,-15%,9%
Cc1nc(-c2ccc(Cl)cc2)sc1C1(C)CC(c2ccc([N+](=O)[O-])cc2)=NO1 (stereo unspecified),-3,1.9,-0.2%,-37%[inhibitor],0,11%,-2%
O=C(Nc1ccnc(-c2cccnc2)n1)c1ccc(Cl)cc1,0,2.3,-0.9%,-62%[inhibitor],-6,9%,-5%
CSc1ccccc1NC(=O)c1ccccc1,3,-1.1,-0.5%,-10%,-1,8%,21%
COc1ccc(-c2nnn(CC(=O)N(CCN3CCOCC3)C(C(=O)NC3CCCC3)c3ccco3)n2)cc1 (stereo unspecified),25,-4.1,-0.3%,-45%[inhibitor],1,-2%,6%
CC1(C)Cc2c(c(N3CCOCC3)nc3sc4c(NCc5ccco5)nnnc4c23)CS1,-2,8.3,-1.7%,-4%,-1,-7%,u
Cc1c(Cl)c([N+](=O)[O-])nn1CC(=O)N1CCCC1,-5,-3.8,-0.9%,6%,-1,11%,9%
COC(=O)c1ccsc1NC(=O)CCc1ccccc1,0,0.9,3.0%,7%,2,-3%,1%
CCCCn1c(N)c(N(C)C(=O)c2cc3c(F)cccc3s2)c(=O)[nH]c1=O,x,x,0.6%,-3%[15.4 µM],0,-3%,x
COc1ccc(OCC(=O)Nc2ccc(S(=O)(=O)Nc3cc(C)on3)cc2)cc1,-13,x,x,-11%[15.4 µM],-5,-8%,x
CC1C(=O)N(Cc2cn(Cc3ccco3)nn2)CCS(=O)(=O)N1Cc1ccc(-c2ccc(F)cc2)cc1 (stereo unspecified),x,x,-0.1%,8%,5,x,x
CCC1SC2=NC(C)=C(C(=O)OC)C(c3ccc(C)cc3)N2C1=O (stereo unspecified),-9,-1.8,-2.5%,13%,4,1%,12%
O=C(COC(=O)/C=C/c1ccccc1)Nc1cccc(Oc2ccccc2)c1,-3,0.4,1.0%,3%[15.4 µM],-5,10%,5%
Cc1cc(C)nc(NC(=O)c2ccc(Cl)cc2)n1,4,-1.6,x,20%,-5,12%,2%
O=C(NC(=S)Nc1ccc(S(=O)(=O)Nc2nccs2)cc1)c1ccc(F)c(F)c1,19,5.1,0.6%,-8%[15.4 µM],-15,-21%,-9%
COc1ccccc1CNC(=O)C(C)n1nc(C)c2c(C)n(-c3ccccc3)nc2c1=O (stereo unspecified),1,x,-1.4%,u,-17,-4%,19%
Cc1ccc(NC(=O)CN(C)C(=O)CSc2nc3ccccc3c(=O)n2CCO)cc1,7,x,-1.9%,-9%,-18,10%,x
CC(C)Cn1c(N)c(C(=O)COC(=O)c2cc(S(=O)(=O)N3CCOCC3)ccc2Br)c(=O)n(C)c1=O,x,x,-1.9%,-3%,-1,-13%,x
O=C(NCc1ccco1)c1cnc2n(c1=O)CCS2,1,0.4,-2.2%,u,-10,14%,4%
N#Cc1c(NC(=O)CCn2cnc3ccccc3c2=O)oc(-c2ccccc2)c1-c1ccccc1,-5,2.8,-23%,22%,25,-16%,11%
O=C(c1ccccc1[N+](=O)[O-])N1CCCN(C(=O)c2ccccc2[N+](=O)[O-])CC1,4,1.1,1.0%,0%[15.4 µM],-8,14%,14%
O=C(O)c1ccc(-n2nnnc2SCc2ccccc2Br)cc1,-6,6.6,0.3%,-4%,-5,-8%,13%
COC(=O)c1cc(S(=O)(=O)N2CCN(c3ccc(F)cc3)CC2)cn1C,-12,x,0.8%&6.1%,u,-6,-3%,2%
CCOc1ccc(C(=O)NC2CCN(C(=S)NCc3ccco3)CC2)cc1,8,-0.9,0.3%,-46%[inhibitor],-5,-10%,7.1µM*
SMILES,TRPV1 PAM,Menin-MLL FL inh,ClpP mod,gsp ag,D2 PAM,gsp antagonist,Sfp PPTase inh
Cc1oc2ccc(OC(=O)N3CCOCC3)cc2c1C(=O)OC(C)C,26,4.2,-1.3%,-1%,-1,1%,8%
O=C(NNc1ncnc2ccccc12)c1cccc(Cl)c1,-15,5.0,0.7%,14%,-10,4%,-1%
COc1ccc(-c2csc(NC(=O)CCNC(=O)c3ccco3)n2)cc1OC,7,x,-0.7%,u,22,-2%,x
Cc1cccc(OCCN2C(=O)C(=O)c3cccc(C)c32)c1,3,0.1,-1.8%,16%,-35,7%,4%
COc1ccc(S(=O)(=O)N2CCCN(CC(=O)Nc3ccc(NC(C)=O)cc3)CC2)cc1,10,-4.2,-2.4%,0%[15.4 µM],-1,-14%,-2%
O=C(NCCN1CCCOC1=O)C(=O)NCCN1CCCOC1=O,1,-0.2,-5.3%,8%,-17,0%,9%
COC(=O)CC1C(=O)NCCN1C(=O)CSc1nnc(Nc2ccc(OC)cc2)s1 (stereo unspecified),-20,3.9,-2.2%,u,11,-9%,-6%
CCCc1cc(C(=O)Nc2ccn(Cc3ccc(C)cc3)n2)no1,-11,0.7,-0.3%,-35%[inhibitor],3,-2%,9%
O=C(Nc1ccccc1)Nc1ccccc1NS(=O)(=O)c1cccs1,11,5.7,x,5%,-2,-4%,25%
Cc1nn(C)c(=O)n1-c1ccc(Oc2ccccc2)cc1,-15,0.3,0.4%,-6%,-3,2%,10%
O=C(COC(=O)c1cccc(NS(=O)(=O)/C=C/c2ccccc2)c1)Nc1ccccc1OC(F)F,22,-4.1,-1.3%,u,-9,-4%,13%
[O-][n+]1c2c(nn1-c1ccc(Cl)c(Cl)c1)-c1nonc1CC2,4,-4.9,x,1%,1,6%,19%
CC1CN(Cc2ccccc2)C(=O)N(c2ccccc2)C1=O (stereo unspecified),x,x,-1.3%,9%,-14,6%,x
CC(=O)Nc1cc(C(C)(C)C)c(O)c(C(C)(C)C)c1,5,-0.9,0.4%,40%,21,5%,-19%
CCOC(=O)c1cc(-c2ccccc2)sc1NC(=O)C(C)N1C(=O)NC(C)(c2ccc(Cl)cc2)C1=O (stereo unspecified),0,2.7,u,1%,30,u,19%

# 2 records picked at random from those above:
SMILES,TRPV1 PAM,Menin-MLL FL inh,ClpP mod,gsp ag,D2 PAM,gsp antagonist,Sfp PPTase inh
CCCCn1c(N)c(N(C)C(=O)c2cc3c(F)cccc3s2)c(=O)[nH]c1=O,x,x,0.6%,-3%[15.4 µM],0,-3%,x
O=C(COC(=O)/C=C/c1ccccc1)Nc1cccc(Oc2ccccc2)c1,-3,0.4,1.0%,3%[15.4 µM],-5,10%,5%
